eIF4H inh = human eIF4H binding inhibitors, primary screen, translation initiation inhibitor project, biochemical, uHTS, fluorescence polarization. Eukaryotic translation initiation factor 4H (Homo sapiens), Q15056. eIF4H fluorescence polarization binding assay. inhibition, % at 35 µM. 290,000 compounds, 0.94% hits;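 active = 50% or more with normal probe brightness, or confirmed in later tests; about a fifth of its hits are not listed in these tables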;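 also: calls also rest on retests at 20 µM and on dose response follow-up; 0% = protein and probe with vehicle and 100% = probe without protein; strong numbers were not always called active; many hits fall short of the cut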
PABP FP inh = PABP poly(A) RNA binding inhibitors, primary screen, biochemical, fluorescence polarization, uHTS. inhibition, % at 35 µM. 290,000 compounds, 1% hits. AID 2014, 2009;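 active = 50% or more with normal probe brightness, or confirmed in later tests; about a fifth of its hits are not listed in these tables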;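 also: calls also rest on retests at 20 µM and on dose response follow-up; controls were probe without protein and protein plus probe with vehicle; some compounds called inactive have numbers as strong as hits; many hits fall short of the cut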
Target sequence (P11940 whole entry, looked up): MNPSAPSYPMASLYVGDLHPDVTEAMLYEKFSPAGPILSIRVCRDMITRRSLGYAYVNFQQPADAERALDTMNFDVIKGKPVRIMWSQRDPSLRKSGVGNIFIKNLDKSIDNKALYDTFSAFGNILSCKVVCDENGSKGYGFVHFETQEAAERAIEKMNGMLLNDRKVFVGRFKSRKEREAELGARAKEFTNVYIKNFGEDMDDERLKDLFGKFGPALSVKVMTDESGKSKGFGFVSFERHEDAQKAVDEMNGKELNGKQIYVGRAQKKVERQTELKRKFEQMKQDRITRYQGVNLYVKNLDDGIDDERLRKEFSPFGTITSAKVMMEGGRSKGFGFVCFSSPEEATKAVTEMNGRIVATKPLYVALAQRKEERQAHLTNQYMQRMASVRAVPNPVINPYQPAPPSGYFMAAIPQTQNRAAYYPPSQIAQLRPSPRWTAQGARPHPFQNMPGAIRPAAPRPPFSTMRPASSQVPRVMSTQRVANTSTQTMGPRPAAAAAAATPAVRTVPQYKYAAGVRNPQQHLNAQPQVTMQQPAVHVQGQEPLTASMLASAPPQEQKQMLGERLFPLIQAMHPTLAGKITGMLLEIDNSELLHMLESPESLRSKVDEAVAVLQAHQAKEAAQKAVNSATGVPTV
CSC inhib = cancer stem cell viability inhibitors, primary screen, luminescence; inhibition, % at 7.5 µM; 300,000 compounds, 1.1% hits; cancer stem cell-like cells viability;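 active = mean at 75% or more and at least half the replicates too; tested in HMLE shEcad cells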;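 also: 0% = median of negative and 100% = median of positive control wells; the first replicate is given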
MT1-MMP act inh = blockers of MT1-MMP proenzyme processing, primary screen, HT1080 RFP-PRO-GFP cells, GFP/RFP fluorescence. 360,000 compounds, 0.061% hits. AID 651647, 2012. Matrix metalloproteinase-14 (Homo sapiens), P50281. GFP/RFP ratio change, % at 20 µM. GFP/RFP ratio fluorescence, overnight; percent of plate control window, DMSO zero;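 active = GFP/RFP ratio change of at least 30% with cell ATP level not reduced by more than half and red fluorescence within 50% of control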; also: strong numbers were not always called active
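Read-out: GFP/RFP fluorescence ratio; Test system: RFP-PRO-GFP reporter HT1080 cells; Compound dosing: single-point 20 µM compound, 1% DMSO; Times: overnight compound exposure at 37 °C.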
UUG fidelity = modulators of yeast start codon fidelity, primary screen, whole organism, S. cerevisiae, single point, plate reader | S. cerevisiae UUG-firefly luciferase reporter, luminescence/redox ratio | activity score, % at 18.7 µM | 350,000 compounds, 0.13% hits | AID 602363, 2012;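 active = replicate mean at a twofold rise or more, about +100% in these data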;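 also: firefly luciferase made from a UUG start codon reports start codon fidelity; reporter light over untreated wells divided by growth signal over untreated wells; some hits fall short of that in this replicate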
Rce1 inh = yeast Rce1p protease inhibitors, primary screen, biochemical, fluorescence, cell-free homogeneous; calls only; yeast membranes, quenched prenylated peptide cleavage fluorescence; 290,000 compounds, 0.27% hits; CAAX prenyl protease 2 (Saccharomyces cerevisiae (strain ATCC 204508 / S288c)), Q03530; AID 2563, 2010;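 active = fall in fluorescence gain of 50% or more versus controls, with final raw signal at or below 3038400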;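 also: plate controls were neutral control wells for no effect and wells lacking membranes for full effect; tested at 10 µM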
Env fusion inh = inhibitors of HIV-1 Env-driven cell-cell fusion, primary screen, HeLa-JRFL effector, CEM21 target cells, luciferase. inhibition, % at 12.3 µM. 360,000 compounds, 1.1% hits;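 active = mean replicate inhibition score of at least 50 and every replicate individually at or above 50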;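 also: 0% = plate neutral controls and 100% = maraviroc near 300 nM; one replicate is shown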
MT1-MMP act inh RFP = further read-out of MT1-MMP act inh, marked with its call; RFP signal change, %; measured here: RFP expression control read;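 0 = vehicle wells; hits needed this value within 50% of zero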
The depositor's hits bear a star. This is a subset; rates above refer to the full screens.

What do the screens show for `CCOC(=O)c1sc(NC(=O)Cc2ccccc2OC)nc1C`?
eIF4H inh: 0; PABP FP inh: 1; CSC inhib: 10; MT1-MMP act inh: -1; UUG fidelity: 3; Rce1 inh: inactive; Env fusion inh: -9; MT1-MMP act inh RFP: -2

Results for CCOC(=O)C(C)(C)C(=O)C(C)(C)C(O)c1ccccn1 (stereo unspecified) ?
eIF4H inh: -3; PABP FP inh: -11; CSC inhib: -5; MT1-MMP act inh: 0; UUG fidelity: -6; Rce1 inh: inactive; Env fusion inh: -16; MT1-MMP act inh RFP: 0

What do the screens show for `Cc1cnc(C(=O)OCC(=O)N(Cc2ccccc2)C(C)(C)C)cn1`?
CSC inhib: 7; MT1-MMP act inh: -2; UUG fidelity: -8; Env fusion inh: -119; MT1-MMP act inh RFP: -1

What do the screens show for `Clc1ccc(-n2ncc3c(NCc4ccccn4)ncnc32)cc1`?
eIF4H inh: 3; PABP FP inh: 0; CSC inhib: 17; MT1-MMP act inh: 2; UUG fidelity: -21; Rce1 inh: inactive; Env fusion inh: -40; MT1-MMP act inh RFP: 1

Results for C[C@@H]1COC(=O)[C@H](Cc2ccc(F)cc2)CC/C=C/C[C@@H](CC(=O)N[C@H](CO)Cc2ccccc2)C(=O)N1 ?
CSC inhib: -19; MT1-MMP act inh: 0; UUG fidelity: 10; Env fusion inh: -36; MT1-MMP act inh RFP: -1

What do the screens show for `O=C(CCc1c[nH]c2ccccc12)Nc1ccc(S(=O)(=O)Nc2ncccn2)cc1`?
eIF4H inh: -2; PABP FP inh: -4; CSC inhib: 14; MT1-MMP act inh: -1; UUG fidelity: -4; Rce1 inh: inactive; Env fusion inh: -3; MT1-MMP act inh RFP: 2

Results for CC1(C)Cc2ccccc2/C(=C/C(=O)c2ccccc2)N1 ?
eIF4H inh: 3; PABP FP inh: 7; CSC inhib: 79*; MT1-MMP act inh: -4; UUG fidelity: 1; Rce1 inh: inactive; Env fusion inh: -1; MT1-MMP act inh RFP: -1

How did Cc1cccc(Nc2ccc([N+](=O)[O-])cc2C(=O)O)c1 do in these assays?
eIF4H inh: 7; PABP FP inh: -2; CSC inhib: -10; MT1-MMP act inh: 9; Rce1 inh: inactive; MT1-MMP act inh RFP: 7

Results for CCCSc1nsc(NC(=O)c2cccnc2OCC)n1 ?
eIF4H inh: -15; PABP FP inh: -6; CSC inhib: 2; MT1-MMP act inh: -7; Rce1 inh: inactive; Env fusion inh: 2; MT1-MMP act inh RFP: -4

How did O=C(Cc1n[nH]c(=O)[nH]c1=O)N/N=C/c1cccc(Cl)c1 do in these assays?
eIF4H inh: 0; PABP FP inh: 4; CSC inhib: -9; MT1-MMP act inh: -1; Rce1 inh: inactive; Env fusion inh: 5; MT1-MMP act inh RFP: 2

What do the screens show for `CN(C)c1ccc(/C=[N+](\[O-])C2SC(=S)N(C)C2(C)C)cc1` (stereo unspecified)?
eIF4H inh: 6; PABP FP inh: -6; CSC inhib: -13; MT1-MMP act inh: -3; UUG fidelity: -8; Rce1 inh: inactive; MT1-MMP act inh RFP: 3

What do the screens show for `COc1cccc(-c2ncc3ccccc3c2COC(=O)CCCC(=O)O)c1`?
CSC inhib: 10; MT1-MMP act inh: 4; UUG fidelity: -12; Env fusion inh: -12; MT1-MMP act inh RFP: 5

Results for Cc1ccc2c(c1)N(CC(=O)Nc1ccccc1F)C(=O)C(C)O2 (stereo unspecified) ?
MT1-MMP act inh: 0; UUG fidelity: -10; Env fusion inh: 0; MT1-MMP act inh RFP: -1

What do the screens show for `Cc1cccc(C(=O)OCC(=O)N2CCCCCC2)c1C`?
MT1-MMP act inh: 0; UUG fidelity: 45; Env fusion inh: -70; MT1-MMP act inh RFP: 0

What do the screens show for `CCN(CC)S(=O)(=O)c1ccc2oc(SCC3CN=C(c4ccc(OC)cc4)S3)nc2c1` (stereo unspecified)?
eIF4H inh: -1; PABP FP inh: -1; CSC inhib: 14; MT1-MMP act inh: -6; UUG fidelity: -8; Rce1 inh: inactive; Env fusion inh: 20; MT1-MMP act inh RFP: -19

Next part; the last two above are carried over.
What do the screens show for `Cc1cccc(C(=O)OCC(=O)N2CCCCCC2)c1C`?
MT1-MMP act inh: 0; UUG fidelity: 45; Env fusion inh: -70; MT1-MMP act inh RFP: 0

What do the screens show for `CCN(CC)S(=O)(=O)c1ccc2oc(SCC3CN=C(c4ccc(OC)cc4)S3)nc2c1` (stereo unspecified)?
eIF4H inh: -1; PABP FP inh: -1; CSC inhib: 14; MT1-MMP act inh: -6; UUG fidelity: -8; Rce1 inh: inactive; Env fusion inh: 20; MT1-MMP act inh RFP: -19

How did CCCCOc1ccc(C(CC(=O)NC)C(=O)O)cc1 (stereo unspecified) do in these assays?
eIF4H inh: -1; PABP FP inh: -3; CSC inhib: 6; MT1-MMP act inh: 4; UUG fidelity: -15; Rce1 inh: inactive; Env fusion inh: -37; MT1-MMP act inh RFP: 3

What do the screens show for `CCOC(=O)C1(Cc2ccccc2C(F)(F)F)CCN(C2CCSC2)CC1` (stereo unspecified)?
eIF4H inh: -11; PABP FP inh: -2; CSC inhib: 25; MT1-MMP act inh: 1; UUG fidelity: 8; Rce1 inh: inactive; Env fusion inh: 13; MT1-MMP act inh RFP: 1

How did COc1ccc(OC)c(S(=O)(=O)NCCS(=O)(=O)N2CCN(c3ccccc3)CC2)c1 do in these assays?
eIF4H inh: -2; PABP FP inh: -5; CSC inhib: -14; MT1-MMP act inh: 8; UUG fidelity: 6; Rce1 inh: inactive; Env fusion inh: 3; MT1-MMP act inh RFP: -4

How did CC1=CN(S(=O)(=O)c2ccc(C)cc2)C[C@@H]2c3ccccc3N(S(=O)(=O)c3ccc(C)cc3)[C@H]12 do in these assays?
MT1-MMP act inh: -3; UUG fidelity: -8; Env fusion inh: -17; MT1-MMP act inh RFP: -3

Results for O=C(CCN1N=C(c2ccccc2)CCC1=O)NCC1COc2ccccc2O1 (stereo unspecified) ?
eIF4H inh: 0; PABP FP inh: 0; CSC inhib: 0; MT1-MMP act inh: -3; UUG fidelity: -17; Rce1 inh: inactive; Env fusion inh: 3; MT1-MMP act inh RFP: -4

How did CN(C)c1ccc(/C=N/n2cnn(Cc3ccccc3Cl)c2=S)cc1 do in these assays?
eIF4H inh: -6; PABP FP inh: -2; CSC inhib: -1; MT1-MMP act inh: -3; Rce1 inh: inactive; Env fusion inh: 0; MT1-MMP act inh RFP: 1

Results for COc1cc(NC(=S)N2CCCCC2C)cc(OC)c1OC (stereo unspecified) ?
eIF4H inh: -11; PABP FP inh: -3; CSC inhib: -12; MT1-MMP act inh: 2; Rce1 inh: inactive; Env fusion inh: -9; MT1-MMP act inh RFP: 2

How did COc1ccc(C2CC(=O)C=C(NCc3ccccc3)C2)cc1 (stereo unspecified) do in these assays?
eIF4H inh: -6; PABP FP inh: -4; CSC inhib: 18; MT1-MMP act inh: -1; Rce1 inh: inactive; Env fusion inh: 12; MT1-MMP act inh RFP: 0

How did Cc1ccc(-c2cc(C(=O)NCc3ccccn3)no2)cc1 do in these assays?
eIF4H inh: 5; PABP FP inh: 7; CSC inhib: 2; MT1-MMP act inh: 8; UUG fidelity: -7; Rce1 inh: inactive; MT1-MMP act inh RFP: 5

What do the screens show for `COc1cc(/C=C(\C#N)C(=O)c2ccc(O)c(O)c2)cc(I)c1O`?
CSC inhib: 17; MT1-MMP act inh: -60; UUG fidelity: 10; Env fusion inh: 16; MT1-MMP act inh RFP: 1

What do the screens show for `CCc1nnc(NC(=O)C(NS(=O)(=O)c2ccccc2)C(C)C)s1` (stereo unspecified)?
MT1-MMP act inh: 1; UUG fidelity: -3; Env fusion inh: 10; MT1-MMP act inh RFP: 6

Results for O=C1N/C(=C/c2cccs2)C(=O)N1Cc1ccccc1F ?
eIF4H inh: 7; PABP FP inh: 34; CSC inhib: -26; MT1-MMP act inh: 3; Rce1 inh: inactive; Env fusion inh: 9; MT1-MMP act inh RFP: 3

What do the screens show for `COc1ccc(C(=O)N2CCN(c3ncccn3)CC2)cc1S(=O)(=O)N1CCOCC1`?
MT1-MMP act inh: 4; UUG fidelity: -12; Env fusion inh: 2; MT1-MMP act inh RFP: 1

Results for CCCCCCn1c(=O)n2n(c1=O)C[C@]1(OC(=O)NCc3ccco3)CN(S(=O)(=O)c3ccc(C)cc3)C[C@]1(O)C2 ?
MT1-MMP act inh: 5; UUG fidelity: 3; Env fusion inh: -80; MT1-MMP act inh RFP: -6

Results for CC(=O)NC(Cc1ccccc1)C(=O)N1CCN(C(=O)c2ccco2)CC1 (stereo unspecified) ?
eIF4H inh: 1; PABP FP inh: -14; CSC inhib: -13; MT1-MMP act inh: 11; Rce1 inh: inactive; MT1-MMP act inh RFP: 9

What do the screens show for `CCC1(c2ccc(Cl)cc2)NC(=O)N(CC(=O)NCc2ccc(F)cc2)C1=O` (stereo unspecified)?
eIF4H inh: -8; PABP FP inh: -2; CSC inhib: -20; MT1-MMP act inh: 5; UUG fidelity: 0; Rce1 inh: inactive; Env fusion inh: 2; MT1-MMP act inh RFP: 3

What do the screens show for `COc1cc2c(cc1OC)C(COc1cc(C)cc(C)c1)N(C(C)=O)CC2` (stereo unspecified)?
eIF4H inh: 0; PABP FP inh: 2; CSC inhib: -9; MT1-MMP act inh: -1; UUG fidelity: -4; Rce1 inh: inactive; Env fusion inh: -3; MT1-MMP act inh RFP: 0

Results for Cc1ccc(C(=O)N2CCc3ccccc32)cc1 ?
eIF4H inh: 10; PABP FP inh: 2; CSC inhib: 4; MT1-MMP act inh: -1; UUG fidelity: -1; Rce1 inh: inactive; Env fusion inh: -11; MT1-MMP act inh RFP: 0

Results for Cc1cccc(NC(=O)NC(C)CCc2ccccc2)c1 (stereo unspecified) ?
eIF4H inh: -6; PABP FP inh: 22; CSC inhib: -9; MT1-MMP act inh: 0; UUG fidelity: -14; Rce1 inh: inactive; Env fusion inh: 1; MT1-MMP act inh RFP: -4

How did Cc1cc(=O)c2c(N(C)C)cccc2[nH]1 do in these assays?
MT1-MMP act inh: 3; UUG fidelity: -12; Env fusion inh: 7; MT1-MMP act inh RFP: 4

Results for Cc1c(C=O)c2ccccc2n1CC(=O)NC(C)c1ccccc1 (stereo unspecified) ?
eIF4H inh: -11; PABP FP inh: 6; CSC inhib: -9; MT1-MMP act inh: -1; UUG fidelity: -22; Rce1 inh: inactive; Env fusion inh: 14; MT1-MMP act inh RFP: -7

What do the screens show for `Cc1ccc(C)n1C(Cc1ccccc1)C(=O)O` (stereo unspecified)?
eIF4H inh: 83*; PABP FP inh: 70*; Rce1 inh: inactive

Ordered by length of the SMILES (smallest number first): part of the list above
What do the screens show for `CCOC(=O)c1sc(NC(=O)Cc2ccccc2OC)nc1C`?
eIF4H inh: 0; PABP FP inh: 1; CSC inhib: 10; MT1-MMP act inh: -1; UUG fidelity: 3; Rce1 inh: inactive; Env fusion inh: -9; MT1-MMP act inh RFP: -2

Results for CC(=O)NC(Cc1ccccc1)C(=O)N1CCN(C(=O)c2ccco2)CC1 (stereo unspecified) ?
eIF4H inh: 1; PABP FP inh: -14; CSC inhib: -13; MT1-MMP act inh: 11; Rce1 inh: inactive; MT1-MMP act inh RFP: 9

What do the screens show for `CCN(CC)S(=O)(=O)c1ccc2oc(SCC3CN=C(c4ccc(OC)cc4)S3)nc2c1` (stereo unspecified)?
eIF4H inh: -1; PABP FP inh: -1; CSC inhib: 14; MT1-MMP act inh: -6; UUG fidelity: -8; Rce1 inh: inactive; Env fusion inh: 20; MT1-MMP act inh RFP: -19
